CDC25B-CDK2 inh: human CDC25B-CDK2/CyclinA binding inhibition; P30305+P24941; HTRF CDC25B-CDK2/CyclinA binding, anti-His/anti-Flag; active compounds read high; z-score (concentration not given with the values); hit rate 0.72% among 94,000; AID 1259370;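 further: score is relative to mean and SD of negative controls; strong numbers were not always called active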
HIV TAR-Tat: HIV-1 TAR-Tat binding disruption; AID 1259389; hit rate 0.6% among 100,000; HIV-1 TAR RNA, Tat peptide displacement FRET; active compounds read high; z-score (test concentration not listed);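 further: score is relative to mean and SD of negative controls; some compounds called inactive have numbers as strong as hits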
* hit, by the source's call; x = no result given.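 How the source made its calls: active means z-score from 3 up in half or more of its runs; inactive means the rest.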

SMILES	CDC25B-CDK2 inh	HIV TAR-Tat
O=C(NNC(=S)Nc1ccccc1C(F)(F)F)c1cccc([N+](=O)[O-])c1	-1.71	x
Cc1nn(C(C)C(=O)NC2CCCc3ccccc32)c(=O)c2cc3occc3n12 (configuration not stated)	0.54	1.75
Cc1cc(C)n(-c2ccccc2O)n1	0.69	1.56
O=C(Oc1cccc(Cl)c1)c1cn(-c2ccccc2)c(=O)c2ccccc12	x	2.31
CC1(C)C(=O)OC(C(=O)c2ccccc2)C(C)(C)C1=O (configuration not stated)	9.02	x
Cc1nc2ccccc2n1CCc1nc2c3ccccc3nc(NCCCN3CCCCC3)n2n1	-0.25	0.37
CCNc1cc(C)nc2nc(-c3ccccc3)nn12	x	1.5
Cc1ccc(Cl)c(Oc2nnc(C)c3ccccc23)c1	x	1.07
COC(=O)CN1C(=O)COc2ccc(S(=O)(=O)N3CCCc4ccccc43)cc21	x	-0.2
COc1ccc(-c2c3c(=O)n(C)c(=O)n(C)c3c3n2-c2ccccc2NC3c2cccc(O)c2O)cc1 (configuration not stated)	-1.84	-0.23
CC1=NC2c3c(oc(C(=O)NCc4cccc(C)c4)c3C)CCC2S1 (configuration not stated)	x	0.39
Cn1c(=O)c2c(-c3cccc(Cl)c3)c(NCc3ccccc3)oc2n(C)c1=O	x	1.85
O=c1[nH]cc(Cl)cc1Cl	6.39*	x
COC(=O)c1c(C)oc2cc(Br)c(OCC(=O)OCc3ccccc3)cc12	-3.11	x
CCOC(=O)CN(c1ccccc1)[P+](c1ccccc1)(c1ccccc1)c1ccccc1	-2.03	x
CCn1c(NCc2ccccc2)nc2c1c(=O)[nH]c(=O)n2C	-0.41	x
O=C(Cn1cnc2nc3c(cc2c1=O)CCCC3)N1CCN(C(=O)c2ccco2)CC1	x	-0.2
COc1ccc(Cn2c(CO)cnc2SCc2ccc(C)cc2)cc1	x	2.29
S=c1n(CN2CCCCC2)nc(Nc2ccccc2)n1-c1ccccc1	-1.51	x
CCOCCc1nnc(NC(=O)C(=O)c2cc(C)n(-c3ccc(Cl)cc3)c2C)s1	-0.96	2.03
Cc1ccc(C2Nn3c(C)nnc3SC2C(=O)Nc2ccc(C)c(Cl)c2)cc1 (configuration not stated)	0.14	0.62
Cc1ccc(NC2=C(CC(=O)O)C(c3ccc(F)cc3)N(c3ccc(C)cc3)C2=O)cc1 (configuration not stated)	-1.55	x
COc1ccc(NC(=O)OC(C)C)cc1	0.55	0.52
Clc1cccc(Cc2nnc(-c3ccccc3)o2)c1	-1.27	0.81
NC(=O)CSc1nc2sc3c(c2c(=O)n1-c1ccccc1)CCCC3	-0.46	x
COC(=O)c1ccc(C2Nc3ccc(OC)cc3C3C=CCC32)cc1 (configuration not stated)	-0.39	0.02
CC(C)CN=C1NS(=O)(=O)c2ccccc21	-1.99	2.39
CC(C)N(C(=O)Cn1ncc2c(=O)oc3ccccc3c21)C1CCCCC1	-0.66	0.42
CCCS(=O)(=O)N1CCCc2ccc(NS(=O)(=O)c3ccc(OC)c(OC)c3)cc21	x	1.23
CCC(CO)Nc1ncnc2c1cnn2C (configuration not stated)	x	0.71
CC1=CN2C(=NC(=O)CC2(C)C(=O)O)C=C1 (configuration not stated)	-0.01	2.32
COC(=O)c1cc(C(=O)Nc2cccc(OC)c2)cc([N+](=O)[O-])c1	-2.75	x
CC(=NC(=S)c1ccc(Cl)cc1)N(C)C	-1.8	x
Cc1ccc(C(C)C)cc2c(C)ccc1-2	x	0.85
Cn1c(=O)sc2cc(S(=O)(=O)N3CCc4ccccc4C3)ccc21	x	0.87
Cc1cccnc1Nc1nc(-c2ccncc2)cs1	-1.42	0.15
CN(C(=O)CN1C(=O)CSc2ccc(S(=O)(=O)N3CCCC3)cc21)C1CCCCC1	x	0.46
O=C(NC(=O)c1c(F)cccc1Cl)Nc1ccccc1C(=O)NCC1CC1	-0.08	x
O=C(CSc1nc2ccccc2o1)NCc1n[nH]c(=O)c2ccccc12	1.57	10.1
Cc1cccc(N(C)c2nc3ccccc3c3nnc(C)n23)c1	x	-0.32
CN1C(=O)C(C)(C)c2cc(S(=O)(=O)N3CCOCC3)ccc21	x	1.46
CC12C=CC(O1)C1C(=O)N(c3ccc(C(=O)O)cc3)C(=O)C12 (configuration not stated)	-0.76	0.94
CC(C)(C)NC(=O)C1CCC(CNS(=O)(=O)c2ccc3c(c2)CCCC(=O)N3)CC1 (configuration not stated)	x	0.57
O=C(NCc1csc(-c2cccs2)n1)[C@H]1CSCN1C(=O)c1ccco1	x	2.43
CC1CCc2onc(C(=O)NCc3ccco3)c2C1 (configuration not stated)	x	1.16
CC1=C(C(=O)Nc2ccc(Br)cc2F)C2C(=O)N(C)C=NC2O1 (configuration not stated)	1.69	-0.32
CCOC(=O)N1c2ccc(C(C)C)cc2C=CC1C#N (configuration not stated)	-1.57	x
O=C(CS(=O)(=O)c1ccc2c(c1)S(=O)(=O)N=CN2)Nc1ccccc1Br	x	0.5
CCCC12CN3CC(CCC)(CN(C1)C3c1ccc(O)c(O)c1)C2=O (configuration not stated)	-0.91	x
O=C(NCc1ccccn1)c1ccc(CS(=O)c2cccc(Cl)c2)o1 (configuration not stated)	x	0.7

Additional records
SMILES	CDC25B-CDK2 inh	HIV TAR-Tat
CNS(=O)(=O)c1cn(CC(=O)N2CCC(C)CC2)cc1S(=O)(=O)NC	x	-1.48
CCOC(=O)c1noc2nc(C)nc(Nc3ccccc3)c12	x	0.17
CCOC(=O)COc1nc(-c2ccccc2)cc(-c2ccccc2)c1C#N	-1.38	x
Cc1ccc(Cn2c(Sc3nccc(C)n3)nc3c2c(=O)[nH]c(=O)n3C)cc1	1.27	0.75
CC(=O)N(Cc1nnc2c3ccccc3c(C)nn12)c1ccccc1	-0.45	3.47
CC1=C(C(=O)OCC2CCCO2)C(c2cccc(C)c2)C2=C(CCCC2=O)N1 (configuration not stated)	-0.46	1.22
CC1Cc2ccccc2N1Cc1nnc(-c2ccccc2)o1 (configuration not stated)	-2.24	1.35
COc1cc(NC(=O)CSc2nnc3c4c5c(sc4ncn23)CCCC5)ccc1Cl	-1.15	1.75
CCCc1nc2ccccc2nc1C	-2.17	x
COc1ccc(OC)c(S(=O)(=O)NC2CCS(=O)(=O)C2)c1 (configuration not stated)	-1.3	x
Fc1ccccc1Nc1ncnc2c1oc1ccccc12	0.98	0.55
CCN(CC)C(=O)CN1C(=O)COc2ccc(S(=O)(=O)N3CCOCC3)cc21	-0.95	0.28
CCOC(=O)C1CCN(S(=O)(=O)c2cn(C)c(C)n2)CC1	-2.7	x
Cc1nn(-c2ccc(N3CCOCC3)nn2)c(C)c1CCC(=O)N1CCC(C)CC1	x	-1.97
CC1CCN(C(=O)[C@H]2[C@@H]3C[C@@H]4[C@H]2C(=O)O[C@@H]4C3)CC1	-1.26	-0.75
COc1ccccc1OC(C)C(=O)O (configuration not stated)	0.44	-0.56
CC(C)c1ccc(NC(=O)CSc2nccc(-c3ccco3)n2)cc1	-2.4	x
O=C(C1CC1)N1CCc2cc(Br)cc(S(=O)(=O)N3CCCC3)c21	1.92	x
Cc1cnc(NC(=O)c2cc(Cl)sc2Cl)c(C)n1	-1.72	x
O=C(NCc1ccco1)c1cc2c(s1)-c1ccccc1OC2	0.43	0.44
O=C(NNS(=O)(=O)c1ccc(C(F)(F)F)cc1)c1cnn(-c2ccccc2)c1C(F)(F)F	-1.7	x
Clc1ccc(C2Oc3ccccc3C3=C2C(c2cccs2)n2ncnc2N3)cc1 (configuration not stated)	-2.17	x
Cc1cc(NC(=O)c2cc3c(s2)-c2ccccc2OC3)no1	-0.84	x
O=C(/C=C/C#Cc1cccc(NS(=O)(=O)c2ccccc2)c1)NO	x	0.32
CCOC(=O)c1sc(=S)n(-c2ccccc2Cl)c1N	x	2.05
CC1Cc2cc(S(=O)(=O)N(C)CC(=O)N3CCCC3)ccc2N1C(=O)C1CC1 (configuration not stated)	x	-0.04
CCC(=O)N1CCc2cc(S(=O)(=O)N3CCc4ccccc43)ccc21	-2.42	x
COC(=O)c1csc(S(=O)(=O)NCc2ccc(S(N)(=O)=O)cc2)c1OC	-1.97	x
O=C(C1CCN(c2ccc(-c3cccs3)nn2)CC1)N1CCN(Cc2ccc3c(c2)OCO3)CC1	x	1.16
C=CCOc1ccc(C(=O)N(Cc2ccco2)C2CCS(=O)(=O)C2)cc1 (configuration not stated)	-0.45	1.78
CN(CCCN1C(=O)c2cc3occc3n2CC1(C)C(=O)NC1CCCCC1)C1CCCCC1 (configuration not stated)	x	1.63
Cc1nc(-c2nnc(NC(=O)C3CC3)o2)c(C)s1	-0.44	-1.09
O=c1c2ccccc2nc(SCc2cc(F)cc3c2OCOC3)n1Cc1ccc2c(c1)OCO2	-1.33	x
Cc1nc2c(C)cccn2c(=O)c1Cc1nnc(SCCOc2ccccc2)n1C	-2.14	-0.21
Fc1ccc(Cn2c(-c3cncs3)nc3ccccc32)cc1	2.18	0.62
COc1cccc(CNc2ncc(-c3ccc(Br)cc3)n2C)c1	0.31	-1.39
CCOc1ccccc1C1C(C(=O)OC2CCCCC2)=C(C)NC2=C1C(=O)C(C(=O)OC)C(C)C2 (configuration not stated)	-0.35	0.36
C1CN(c2nsnc2OCCOc2nsnc2N2CCOCC2)CCO1	-0.52	-0.42
C=C(C)c1cccc(C(C)(C)NC(=O)N2CCN(C(=O)OCC)CC2)c1	-1.83	0.2
COc1ccc(CN2C(=O)C(C)SC2c2cccnc2)cc1 (configuration not stated)	-0.05	x

In a second layout: results already given
Second line of a record: CDC25B-CDK2 inh, HIV TAR-Tat
- Cc1nc(-c2nnc(NC(=O)C3CC3)o2)c(C)s1
  -0.44, -1.09
- O=c1c2ccccc2nc(SCc2cc(F)cc3c2OCOC3)n1Cc1ccc2c(c1)OCO2
  -1.33, x
- Cc1nc2c(C)cccn2c(=O)c1Cc1nnc(SCCOc2ccccc2)n1C
  -2.14, -0.21
- Fc1ccc(Cn2c(-c3cncs3)nc3ccccc32)cc1
  2.18, 0.62
- COc1cccc(CNc2ncc(-c3ccc(Br)cc3)n2C)c1
  0.31, -1.39
- CCOc1ccccc1C1C(C(=O)OC2CCCCC2)=C(C)NC2=C1C(=O)C(C(=O)OC)C(C)C2 (configuration not stated)
  -0.35, 0.36
- C1CN(c2nsnc2OCCOc2nsnc2N2CCOCC2)CCO1
  -0.52, -0.42

Continuation.
SMILES	CDC25B-CDK2 inh	HIV TAR-Tat
COC(=O)c1cc(-c2ccc(F)cc2)c2c(=O)n(C)c(=O)n(C)c2n1	0.17	1.44
COc1cccc(-c2n[nH]c3c2C(c2ccc(OC)cc2OC)NC3=O)c1 (configuration not stated)	-0.36	0.85
Cn1nnnc1SCCCNCc1cccc(Cl)c1	-1.17	1.15
O=C(C1CCCN(c2nc3ccccc3n3cccc23)C1)N1CCOCC1 (configuration not stated)	x	-0.59
CCOC(=O)c1ccccc1NC(=O)CN(c1ccc(C)cc1)S(C)(=O)=O	-0.68	x
O=C(Nc1nnc2n1CCS2)c1cccc(F)c1	x	1.07
Cc1cc(OCCN2CCOCC2)ccc1C(C)C	1.49	0.33
CCOCCCNC(=O)Nc1nc2c(s1)CCCC2	x	1.4
COCc1cc(C)nc2sc3c(=O)n(-c4ccc(C)cc4)nnc3c12	-1.46	1.02
COc1ccccc1C1C(C#N)=C(N)Oc2c1ccc1ccccc21 (configuration not stated)	0.65	1.64

Profiles from above:
Record of `COc1ccc(OC)c(S(=O)(=O)NC2CCS(=O)(=O)C2)c1` (configuration not stated) = CDC25B-CDK2 inh = -1.3; HIV TAR-Tat = x
Record of `CN1C(=O)C(C)(C)c2cc(S(=O)(=O)N3CCOCC3)ccc21` = CDC25B-CDK2 inh = x; HIV TAR-Tat = 1.46

Next part
SMILES	CDC25B-CDK2 inh	HIV TAR-Tat
CCCCc1ccc(NCc2nc(-c3ccc(C)cc3)no2)cc1	-0.76	0.7
Cc1cccc(NC(=O)c2sc3nc4n(c(=O)c3c2C)CCCCC4)n1	x	0.8
Cc1ccc(-c2noc(-c3ccc[nH]c3=O)n2)cc1	-1.11	1.89
OCCSc1nnc(CCSCc2ccccc2)n1-c1ccccc1	-0.63	1.59
CCC(=O)N1CCc2cc(S(=O)(=O)CCC(=O)NC3CCCCC3C)ccc21 (configuration not stated)	-3.85	x
Cc1cc(-c2ccc(C(C)C)c(S(=O)(=O)Nc3ccc(F)cc3)c2)on1	x	0.62
CCOC(=O)C1=C(C)Nc2ncnn2C1c1cccc(F)c1 (configuration not stated)	0.29	1.28
CCSC(=N)N	-0.75	x
O=C(Nc1ccc(Br)cc1)NC(c1ccccc1)c1nnc(-c2ccccc2)o1 (configuration not stated)	x	0.91
O=C(Nc1ccccc1)C(C(F)(F)F)C(F)(F)F	-1.18	x
CC1CCN(S(=O)(=O)c2ccc3[nH]c4c(c3c2)CCCC4)CC1	x	-1.42
Cc1ccc(C)c(S(=O)(=O)Nc2ccc3oc4c(c3c2)C(=O)CCC4)c1	-1.54	-0.87
C=C1C(=O)O[C@@H]2[C@H]3O[C@]3(C)CCC=C(C)CC[C@@H]12	0.11	x

Screening data (PubChem)
